MLL AF4-AF9 inh = blocks AF4 peptide binding to human AF9; AlphaScreen, biotin-AF4 peptide binding to FLAG-AF9; inhibition, % at 10 µM; 350,000 tested, 0.47% active; AID 651704;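 active = every replicate reaching a set inhibition limit, whatever the replicate mean, cut at about 25% in these data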;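 note: 0% = plate neutral control median and 100% = total signal loss; the record names both 10 and 1 µM as test concentration; the first replicate is given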
Target sequence (P42568 whole entry, looked up): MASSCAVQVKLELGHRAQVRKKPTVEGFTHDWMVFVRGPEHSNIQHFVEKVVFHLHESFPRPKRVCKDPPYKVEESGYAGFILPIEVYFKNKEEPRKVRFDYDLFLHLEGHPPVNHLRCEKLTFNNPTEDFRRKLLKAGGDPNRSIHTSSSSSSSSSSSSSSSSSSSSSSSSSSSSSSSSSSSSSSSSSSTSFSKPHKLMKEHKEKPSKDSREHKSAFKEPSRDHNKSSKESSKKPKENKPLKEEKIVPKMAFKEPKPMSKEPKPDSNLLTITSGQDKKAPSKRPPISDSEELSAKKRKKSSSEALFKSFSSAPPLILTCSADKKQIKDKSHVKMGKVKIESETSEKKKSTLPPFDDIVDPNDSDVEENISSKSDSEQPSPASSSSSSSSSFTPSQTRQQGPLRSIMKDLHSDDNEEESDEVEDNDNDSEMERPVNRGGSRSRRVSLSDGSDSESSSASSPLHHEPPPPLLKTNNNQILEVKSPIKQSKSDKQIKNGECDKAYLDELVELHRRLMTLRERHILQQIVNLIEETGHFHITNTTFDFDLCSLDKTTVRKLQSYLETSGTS
FGF22 binding = binders of recombinant human FGF22 by thermal shift; SYPRO orange fluorescence; percent of sucrose octasulfate shift, DMSO zero; AID 651658; 340,000 tested, 1.5% active; calls only at 9.99 µM;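 active = melting point raised past a set limit in the mean and every replicate; three in four hits are not shown here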
Target sequence (Q9HCT0 whole entry, looked up): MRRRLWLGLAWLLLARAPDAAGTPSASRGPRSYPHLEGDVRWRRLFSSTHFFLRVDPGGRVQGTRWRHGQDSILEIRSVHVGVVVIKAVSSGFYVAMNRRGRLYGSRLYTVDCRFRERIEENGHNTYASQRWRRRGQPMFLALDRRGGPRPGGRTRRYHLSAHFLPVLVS
The depositor's hits bear a star; i = inactive. A portion of the library; the hit share may differ from the screen's.

MLL AF4-AF9 inh	FGF22 binding	SMILES
-8.7	i	CCC(=O)N1C[C@@H](O)COC[C@H]2O[C@H](CC(=O)NCc3ccccc3Cl)CC[C@@H]21
-0.3	i	O=C(C[C@@H]1CC[C@H](NC(=O)c2cccc(F)c2)[C@H](CO)O1)Nc1nccs1
-1.9	i	C[C@@H]1CCCCO[C@@H](CN(C)C(=O)CCC(F)(F)F)[C@H](C)CN([C@@H](C)CO)C(=O)c2cc(NC(=O)CCC(F)(F)F)ccc2O1
-3.4	i	C[C@@H]1CN([C@@H](C)CO)C(=O)c2cccc(NC(=O)Nc3ccccc3)c2O[C@@H]1CN(C)C(=O)NC1CCCCC1
-7.0	i	CCS(=O)(=O)NCC[C@H]1CC[C@H](NC(=O)Cc2ccccn2)[C@@H](CO)O1
-2.0	i	C[C@@H]1CN([C@@H](C)CO)C(=O)c2cccc(NS(=O)(=O)c3cccs3)c2O[C@@H]1CN(C)S(=O)(=O)c1cn(C)cn1
-3.0	i	C[C@H](NC(=O)C[C@H]1CC[C@H]2[C@@H](COC[C@@H](O)CN2Cc2cc(F)ccc2F)O1)c1ccccc1
2.3	i	C[C@@H]1CN([C@@H](C)CO)C(=O)c2cccc(NC(=O)C3CCCCC3)c2O[C@@H]1CN(C)Cc1ccc(C(=O)Nc2ccccc2N)cc1
1.7	i	CCC(=O)Nc1ccc2c(c1)C(=O)N(C)[C@H]1CC[C@H](CC(=O)Nc3cccc(OC)c3)O[C@H]1CO2
0.8	i	CO[C@@H]1CN(C)C(=O)c2ccc(NS(=O)(=O)c3ccc(Cl)cc3)cc2OC[C@H](C)N(C(=O)NC(C)C)C[C@@H]1C
-14	i	C[C@@H](NC(=O)C[C@@H]1C=C[C@H](NS(=O)(=O)c2cccc(F)c2)[C@H](CO)O1)c1ccccc1
-2.3	i	C/C=C/c1ccc([C@@H]2[C@@H](CO)N(C(=O)CC)[C@H]2CNC(=O)C2CC2)cc1
2.8	i	C[C@@H]1CN([C@H](C)CO)C(=O)c2cc(NS(C)(=O)=O)ccc2O[C@H]1CN(C)C(=O)Nc1ccccc1
9.1	i	C[C@H]1CN([C@@H](C)CO)C(=O)c2cccc(NC(=O)Nc3ccc4c(c3)OCO4)c2O[C@H]1CN(C)CC1CCCCC1
-0.8	i	O=C(N[C@@H]1CC[C@H](CC(=O)N2CCOCC2)O[C@@H]1CO)c1ccccn1
2.1	i	COc1ccc(S(=O)(=O)N(C)C[C@@H]2Oc3ccc(NC(=O)CCCN(C)C)cc3CC(=O)N([C@@H](C)CO)C[C@H]2C)cc1
-0.6	i	Cc1noc(C)c1S(=O)(=O)Nc1ccc2c(c1)CC(=O)N([C@H](C)CO)C[C@@H](C)[C@H](CN(C)C(=O)NC(C)C)O2
-2.8	i	C[C@@H]1CN([C@@H](C)CO)C(=O)c2cc(NS(=O)(=O)c3ccccc3)ccc2O[C@@H](C)CCCCO[C@@H]1CN(C)C(=O)C1CCCCC1
-2.3	i	O=C(C[C@H]1C[C@H]2c3cc(NC(=O)Nc4ccccc4F)ccc3O[C@H]2[C@@H](CO)O1)NCc1ccc(Oc2ccccc2)cc1
-0.9	i	C[C@H]1CN([C@@H](C)CO)C(=O)c2cccc(NC(=O)Nc3ccccc3)c2O[C@H]1CN(C)Cc1ccc(C(=O)Nc2ccccc2N)cc1

Laid out differently: results already given.
C[C@@H]1CCCCO[C@@H](CN(C)C(=O)CCC(F)(F)F)[C@H](C)CN([C@@H](C)CO)C(=O)c2cc(NC(=O)CCC(F)(F)F)ccc2O1
- MLL AF4-AF9 inh: -1.9
- FGF22 binding: i
C[C@@H](NC(=O)C[C@@H]1C=C[C@H](NS(=O)(=O)c2cccc(F)c2)[C@H](CO)O1)c1ccccc1
- MLL AF4-AF9 inh: -14
- FGF22 binding: i
C[C@H]1CN([C@@H](C)CO)C(=O)c2cccc(NC(=O)Nc3ccc4c(c3)OCO4)c2O[C@H]1CN(C)CC1CCCCC1
- MLL AF4-AF9 inh: 9.1
- FGF22 binding: i
CCS(=O)(=O)NCC[C@H]1CC[C@H](NC(=O)Cc2ccccn2)[C@@H](CO)O1
- MLL AF4-AF9 inh: -7.0
- FGF22 binding: i

(listing goes on)
MLL AF4-AF9 inh	FGF22 binding	SMILES
17	i	CC(=O)N(C)C[C@H]1Oc2cc(C#CC3CCCCC3)ccc2S(=O)(=O)N([C@H](C)CO)C[C@@H]1C
-0.6	i	Cc1ccc(S(=O)(=O)N(C)C[C@H]2OCCCC[C@H](C)Oc3ccc(NC(=O)Nc4ccc(F)cc4)cc3C(=O)N([C@@H](C)CO)C[C@H]2C)cc1
1.5	i	CNC[C@@H]1Oc2c(NC(=O)Nc3ccc(C(F)(F)F)cc3)cccc2C(=O)N([C@@H](C)CO)C[C@@H]1C
-8.1	i	CCOc1ccc(N2C(=O)CSC2c2cccc([N+](=O)[O-])c2)cc1 (configuration not stated)
3.5	i	COCC(=O)N(C[C@H]1N[C@H](CO)[C@H]1c1ccc(C2=CCCCC2)cc1)C(C)C
3.9	i	C/C=C/c1ccc([C@@H]2[C@H]3CN(C(=O)Nc4ccc(OC)cc4)CCCCN3[C@H]2CO)cc1
4.8	i	C[C@H]1CN([C@@H](C)CO)C(=O)c2cccc(NC(=O)c3cnccn3)c2O[C@H]1CN(C)Cc1ccc(-c2ccccc2)cc1
-0.2	i	COc1ccccc1-c1cn(CC[C@H]2CC[C@@H](NC(=O)C3CCC3)[C@H](CO)O2)nn1
2.0	i	COc1ccc(NC(=O)N(C)C[C@@H]2Oc3ccc(NC(=O)Cc4ccccc4)cc3C(=O)N([C@@H](C)CO)C[C@H]2C)cc1
4.5	i	C[C@@H]1CN([C@H](C)CO)C(=O)c2cccc(NC(=O)Nc3ccc(C(F)(F)F)cc3)c2O[C@@H]1CN(C)Cc1ccc(Oc2ccccc2)cc1
2.9	i	C[C@@H]1CN([C@H](C)CO)C(=O)c2cccc(NC(=O)Nc3ccc(C(F)(F)F)cc3)c2O[C@H]1CN(C)Cc1ccc(Cl)c(Cl)c1
4.2	i	O=C(NCc1ccccn1)[C@@H]1[C@@H](CO)[C@@H]2Cn3c(ccc(C4=CCCC4)c3=O)[C@H]1N2Cc1cccnc1
-2.3	i	Cc1noc(C)c1S(=O)(=O)Nc1ccc2c(c1)C(=O)N([C@@H](C)CO)C[C@H](C)[C@@H](CN(C)S(=O)(=O)c1cccs1)O2
1.5	i	C[C@@H]1CN([C@H](C)CO)C(=O)c2cc(NC(=O)Nc3ccccc3)ccc2O[C@H]1CN(C)S(=O)(=O)c1ccccc1
-2.4	i	O=C(Nc1ccccc1)[C@@H]1[C@@H](CO)[C@@H]2Cn3c(cccc3=O)[C@@H]2N1CC1CC1
-1.8	i	O=C(c1cnccn1)N1CC[C@@H]2[C@H]1c1cc(-c3ccccc3)ccc1N[C@@H]2CO
3.4	i	COCC(=O)N1C[C@@H](C)[C@@H](OC)CN(C)C(=O)c2cc(NC(=O)c3ccc(OC)cc3)ccc2OC[C@H]1C
0.2	i	COc1ccc(NC(=O)N(C)C[C@H]2Oc3c(NC(=O)NC4CCCCC4)cccc3C(=O)N([C@@H](C)CO)C[C@@H]2C)cc1
-4.3	i	CNC[C@H]1OCCCC[C@@H](C)Oc2ccc(NS(=O)(=O)c3ccc(Cl)cc3)cc2C(=O)N([C@H](C)CO)C[C@H]1C
0.3	i	CC(C)CC1NC(=O)c2cc(Cl)ccc2-n2c1nc1cc(F)ccc1c2=O (configuration not stated)
-1.1	i	C[C@@H]1CN([C@@H](C)CO)C(=O)c2cc(NC(=O)c3ccncc3)ccc2O[C@@H](C)CCCCO[C@H]1CN(C)C(=O)C1CCCCC1
-0.7	i	C[C@@H]1CN([C@H](C)CO)C(=O)c2cc(NC(=O)CCCN(C)C)ccc2O[C@@H]1CN(C)S(=O)(=O)c1cn(C)cn1
-0.2	i	COc1ccc(-c2ccc3c(c2)O[C@H](CN(C)Cc2cccnc2)[C@@H](C)CN([C@@H](C)CO)S3(=O)=O)cc1
6.2	i	CO[C@@H]1CN(C)C(=O)c2cc(NC(C)=O)ccc2OC[C@H](C)N(CCc2ccccc2)C[C@@H]1C
-0.9	i	COc1ccc(-c2ccccc2[C@@H]2[C@@H](CO)N(C(=O)C3CCC3)[C@H]2C#N)cc1
-1.8	i	CC(C)NC(=O)N(C)C[C@H]1Oc2ccc(NC(=O)c3ccncc3)cc2CC(=O)N([C@H](C)CO)C[C@H]1C
0.7	i	C[C@H](CO)N1C[C@H](C)[C@H](CN(C)S(C)(=O)=O)Oc2ccc(NC(=O)Nc3ccccc3)cc2CC1=O
1.6	i	O=C(Nc1ccc2c(c1)[C@@H]1C[C@H](CC(=O)N3CCc4ccccc4C3)O[C@H](CO)[C@@H]1O2)C1CCC1
-0.4	i	Cc1noc(C)c1S(=O)(=O)Nc1ccc2c(c1)C(=O)N([C@H](C)CO)C[C@H](C)[C@H](CN(C)C(=O)Nc1ccc(C(F)(F)F)cc1)OCCCC[C@H](C)O2
0.2	i	C[C@H]1CN([C@@H](C)CO)C(=O)c2ccccc2-c2ccccc2CO[C@@H]1CN(C)Cc1ccc(C(=O)O)cc1
-2.8	i	C[C@@H]1CCCCO[C@H](CN(C)C(=O)c2ccncc2)[C@H](C)CN([C@@H](C)CO)C(=O)c2cc(NS(=O)(=O)c3cccs3)ccc2O1
-0.5	i	C[C@@H]1CN([C@H](C)CO)C(=O)c2cc(NC(=O)CCCN(C)C)ccc2O[C@@H]1CN(C)S(=O)(=O)c1ccc(F)cc1
-0.8	i	CO[C@@H]1CC[C@@H]2CCN(C)C(=O)[C@H](C)N(C)C(=O)c3cc(C#N)ccc3OC[C@@H]1O2
2.7	i	Cn1cnc(S(=O)(=O)N2CC[C@@H]3[C@H](CO)Nc4ccc(-c5ccccc5)cc4[C@@H]32)c1
1.3	i	O=C(c1cccc(F)c1)N1C[C@@H]2[C@H](c3ccccc31)[C@H](CO)N2C(=O)C1CCCC1
-2.5	i	C[C@@H]1CN([C@@H](C)CO)C(=O)c2cc(-c3ccncc3)cnc2O[C@H]1CN(C)C(=O)CN1CCOCC1
0.0	i	CC(=O)N1[C@H](CN(C)C(=O)C2CCC2)[C@@H](c2ccccc2)[C@@H]1CO
-4.1	i	C[C@H]1CN([C@@H](C)CO)C(=O)c2cc(-c3cccc(C#N)c3)cnc2O[C@H]1CN(C)C
-9.9	i	C[C@@H]1CN([C@@H](C)CO)C(=O)c2cc(NC(=O)CCN3CCOCC3)ccc2O[C@@H]1CN(C)C(=O)Nc1ccc(C(F)(F)F)cc1
-0.4	i	C[C@H]1CN([C@@H](C)CO)C(=O)c2cc(C#Cc3ccccc3F)cnc2O[C@@H]1CN(C)S(=O)(=O)c1ccccc1F
-3.7	i	C[C@@H]1CN([C@@H](C)CO)C(=O)c2cccc(NC(=O)C3CCOCC3)c2O[C@@H]1CN(C)S(=O)(=O)c1cn(C)cn1
-1.2	i	C[C@@H]1CN([C@@H](C)CO)C(=O)Cc2cc(NC(=O)C3CCCCC3)ccc2O[C@@H]1CN(C)C(=O)Nc1cccc2ccccc12
-2.7	i	CC=Cc1ccc2n(c1=O)C[C@@H]1[C@@H](CO)[C@H](C(=O)NCc3ccncc3)N(Cc3cncnc3)[C@H]21 (mixture of isomers)
-15	i	CO[C@H]1CC[C@H]2CCN(C)C(=O)[C@H](C)[C@@H](OC)CN(C)C(=O)c3cccc(C#N)c3OC[C@H]1O2
-1.5	i	COCC(=O)Nc1ccc2c(c1)C(=O)N(C)[C@@H]1CC[C@@H](CC(=O)NCCc3ccccc3)O[C@H]1CO2
-3.2	i	CC(C)NC(=O)N(C)C[C@@H]1Oc2cc(C#C[C@@H](C)O)ccc2S(=O)(=O)N([C@@H](C)CO)C[C@@H]1C
-0.2	i	COc1ccccc1S(=O)(=O)N[C@@H]1CC[C@H](CCNC(=O)C2CCOCC2)O[C@@H]1CO
1.0	i	CC(=O)N1[C@@H]2Cn3c(cccc3=O)[C@H]1[C@@H](C(=O)NCC1CCCCC1)[C@@H]2CO
-2.8	i	O=C(C[C@@H]1C[C@H]2c3cc(NC(=O)c4cccnc4)ccc3O[C@H]2[C@@H](CO)O1)NCc1ccc(Oc2ccccc2)cc1
-5.5	i	COCC#Cc1cnc2c(c1)C(=O)N([C@H](C)CO)C[C@@H](C)[C@@H](CN(C)Cc1ccccc1F)O2

New compounds follow:
MLL AF4-AF9 inh	FGF22 binding	SMILES
3.2	i	C[C@@H]1CCCCO[C@@H](CN(C)Cc2ccc(Cl)c(Cl)c2)[C@@H](C)CN([C@@H](C)CO)C(=O)c2cc(NC(=O)Nc3ccc4c(c3)OCO4)ccc2O1
1.8	i	C[C@@H]1CN([C@@H](C)CO)C(=O)Cc2cc(NC(=O)Cc3ccccc3)ccc2O[C@@H]1CN(C)S(=O)(=O)c1ccc(Cl)cc1
1.6	i	COC(=O)c1cc2c(c3c4ccccc4n(S(=O)(=O)c4ccccc4)c13)C(=O)N(C)C2
4.9	i	C[C@H]1CN([C@@H](C)CO)C(=O)c2cc(C#CCC3CCCC3)cnc2O[C@H]1CN(C)Cc1ccccn1
2.8	i	C[C@@H]1CN([C@H](C)CO)C(=O)Cc2cc(NC(=O)Nc3cccc4ccccc34)ccc2O[C@H]1CN(C)C(=O)Nc1ccc(F)cc1

Retrieved by structure from the entries so far, 3 records:
MLL AF4-AF9 inh	FGF22 binding	SMILES
-1.8	i	CC(C)NC(=O)N(C)C[C@H]1Oc2ccc(NC(=O)c3ccncc3)cc2CC(=O)N([C@H](C)CO)C[C@H]1C
-0.2	i	COc1ccccc1S(=O)(=O)N[C@@H]1CC[C@H](CCNC(=O)C2CCOCC2)O[C@@H]1CO
-2.5	i	C[C@@H]1CN([C@@H](C)CO)C(=O)c2cc(-c3ccncc3)cnc2O[C@H]1CN(C)C(=O)CN1CCOCC1
